Assay outcomes deposited in PubChem by several laboratories.
Rce1 inhib – blocks yeast Ras-converting enzyme; yeast membranes, quenched prenylated peptide cleavage fluorescence; calls only; hit rate 0.27% among 290,000;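 active = fall in fluorescence gain of 50% or more versus controls, with final raw signal at or below 3038400; inconclusive = same 50% fall but final raw signal above 3038400; inactive = fall in fluorescence gain under 50%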;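 note: plate controls were neutral control wells for no effect and wells lacking membranes for full effect; tested at 10 µM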
Yeast UUG start – modulators of start codon recognition fidelity in yeast; S. cerevisiae UUG-firefly luciferase reporter, luminescence/redox ratio; activity score, % at 18.7 µM; hit rate 0.13% among 350,000;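 active = replicate mean at a twofold rise or more, about +100% in these data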;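 note: firefly luciferase made from a UUG start codon reports start codon fidelity; reporter light over untreated wells divided by growth signal over untreated wells; some hits fall short of that in this replicate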
PABP polyA inh – PABP-poly(A) binding inhibition; P11940; PABP-poly(A) RNA binding, fluorescence polarization; inhibition, % at 35 µM; hit rate 1% among 290,000; AID 2014;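 active = 50% or more with normal probe brightness, or confirmed in later tests; inconclusive = above 50% with abnormal brightness, or retests that disagree; inactive = below 50% or failed in later tests; about a fifth of its hits are not listed in these tables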;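 note: calls also rest on retests at 20 µM and on dose response follow-up; controls were probe without protein and protein plus probe with vehicle; some compounds called inactive have numbers as strong as hits; many hits fall short of the cut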
Target sequence (P11940 whole entry, looked up): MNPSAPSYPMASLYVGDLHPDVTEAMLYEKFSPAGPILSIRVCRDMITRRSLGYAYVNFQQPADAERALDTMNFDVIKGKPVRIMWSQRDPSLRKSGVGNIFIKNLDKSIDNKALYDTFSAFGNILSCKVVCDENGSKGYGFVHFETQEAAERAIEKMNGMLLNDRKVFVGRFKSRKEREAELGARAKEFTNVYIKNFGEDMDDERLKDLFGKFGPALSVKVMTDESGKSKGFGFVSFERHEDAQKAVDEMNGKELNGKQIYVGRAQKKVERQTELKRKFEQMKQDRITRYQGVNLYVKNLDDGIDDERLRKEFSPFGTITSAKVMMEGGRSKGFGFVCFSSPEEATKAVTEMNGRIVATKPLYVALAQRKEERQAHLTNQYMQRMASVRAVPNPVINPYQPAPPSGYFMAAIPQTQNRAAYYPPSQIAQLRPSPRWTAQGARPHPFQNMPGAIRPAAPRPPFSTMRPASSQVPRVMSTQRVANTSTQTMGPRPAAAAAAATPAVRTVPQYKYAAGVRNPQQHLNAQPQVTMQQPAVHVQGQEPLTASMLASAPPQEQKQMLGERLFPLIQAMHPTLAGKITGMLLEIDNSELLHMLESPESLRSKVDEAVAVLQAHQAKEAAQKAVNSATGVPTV
MT1-MMP act inh – inhibitors of human MT1-MMP activation; HT1080 RFP-PRO-GFP cells, GFP/RFP ratio fluorescence, overnight; percent of plate control window, DMSO zero; AID 651647; GFP/RFP ratio change, % at 20 µM; hit rate 0.061% among 360,000;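 active = GFP/RFP ratio change of at least 30% with cell ATP level not reduced by more than half and red fluorescence within 50% of control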; note: strong numbers were not always called active
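Compound: 20 µM single dose, 1% DMSO / System: HT1080 RFP-PRO-GFP cells / Controls: DMSO and RFP-L50D-GFP cell wells / Read-out basis: GFP/RFP fluorescence ratio / Schedule: overnight compound exposure at 37 °C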
CSC inhib – cancer stem cell inhibition; cancer stem cell-like cells viability, luminescence; inhibition, % at 7.5 µM; hit rate 1.1% among 300,000; AID 2717;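 active = mean at 75% or more and at least half the replicates too; inconclusive = mean and replicates disagree; tested in HMLE shEcad cells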;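 note: 0% = median of negative and 100% = median of positive control wells; the first replicate is given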
eIF4H FP inh – inhibitors of RNA binding by human eIF4H; hit rate 0.94% among 290,000; AID 2012; eIF4H fluorescence polarization binding assay; Q15056; inhibition, % at 35 µM;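 active = 50% or more with normal probe brightness, or confirmed in later tests; inconclusive = above 50% with abnormal brightness, or retests that disagree; inactive = below 50% or failed in later tests; about a fifth of its hits are not listed in these tables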;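 note: calls also rest on retests at 20 µM and on dose response follow-up; 0% = protein and probe with vehicle and 100% = probe without protein; strong numbers were not always called active; many hits fall short of the cut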
HIV Env fusion – inhibitors of HIV Env-mediated cell fusion; HeLa-JRFL Env/CEM21 cell fusion, luciferase; inhibition, % at 12.3 µM; hit rate 1.1% among 360,000;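 active = mean replicate inhibition score of at least 50 and every replicate individually at or above 50; inconclusive = only one of the two criteria met; inactive = mean below 50 and not all replicates reaching 50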;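 note: 0% = plate neutral controls and 100% = maraviroc near 300 nM; one replicate is shown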
eIF4H FP inh retest – further read-out of eIF4H FP inh, marked with its call; inhibition, %; compound at 20 µM; confirmation average;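 mean of two retest wells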
PABP polyA inh retest – recorded beside PABP polyA inh, whose call it bears; inhibition, %; compound at 20 µM; confirmation repeats;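 mean of two retest wells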
MT1-MMP act inh RFP – further read-out of MT1-MMP act inh, marked with its call; RFP signal change, %; measured here: RFP expression control read;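 0 = vehicle wells; hits needed this value within 50% of zero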
Numbers without * were called inactive; i = inactive; ? = inconclusive; . = no result given; & = joins results of further samples; [ ] = remark or other dose.

SMILES	Rce1 inhib	Yeast UUG start	PABP polyA inh	MT1-MMP act inh	MT1-MMP act inh RFP	CSC inhib	eIF4H FP inh	HIV Env fusion	others
CCOC(=O)c1ccc(NC(=O)c2ccc(OC(C)C)c(OC)c2)cc1	i	.	-2	-3	-8	-23	-6	30
CC(Nc1cccnc1)=C(C#N)C#N	i	.	-2	1	2	-10	-6	8
CCCCCC(=O)N1CCN(S(=O)(=O)c2ccc3c(c2)OCCO3)CC1	i	5	.	3	0	-12	.	5
O=C(Nc1ccc2oc(-c3ccc4ccccc4c3)nc2c1)c1ccc2c(c1)OCCO2	i	-12	-5	3	-9	22	-4	-29
NC(=O)c1ccc(NCCc2ccco2)cc1	.	0	.	-4	-2	.	.	10
COc1ccc(CCNC(=O)C(=O)NCC2OCCN2S(=O)(=O)c2ccc(C)cc2)cc1OC (stereo not given)	i	-1	-4	0	-16	-2	2	.
CCC1(C)Cc2c(C#N)c(N)n(-c3ccccc3)c(=O)c2CO1 (stereo not given)	i	-15	13	-4	1	-2	-11	22
O=C(C1CCC1)N1CCN(S(=O)(=O)c2ccc(Br)cc2Cl)CC1	i	2	.	4	-11	-10	.	11
O=C(C1CCCN(Cc2ccccc2Cl)C1)N1CCCCC1 (stereo not given)	i	-8	4	-4	2	-14	15	-9
Cc1ccc(OCC(=O)N2CCC3(CC2)CC(=O)c2ccccc2O3)cc1	i	-8	.	-2	-2	-12	.	.
O=c1cc(-c2ccccc2)c2c(O)cc(O)cc2o1	i	-13	4	1	0	3	-8	-1
COc1ccc(CCNC(=O)C(=O)NCC2OCCN2S(=O)(=O)c2ccc(Cl)cc2)cc1OC (stereo not given)	i	0	-9	-1	-21	-10	-6	.
Cc1nnc(SCC(=O)N2c3ccccc3C(C)(c3ccccc3)CC2(C)C)s1 (stereo not given)	i	.	19	-13	-23	.	-8	62*
Cc1nn(CC#N)c(=O)n1-c1ccccc1F	i	-19	5	2	4	-9	8	-28
CC(C)Oc1ccc2c(=O)c(-c3ccccc3)coc2c1	i	-29	5&1	2	-6	3	-11&-8	.
COc1ccc(CCNC(=O)/C=C/c2ccco2)cc1OC	i	-17	5	-1	1	-7	4	-6
Cc1ccc(NC(=O)c2nc[nH]c2C(=O)NCc2ccccc2)cc1	.	-10	.	10	1	-9	.	-37
COc1cccc(NC(=O)Cn2c(CCC(=O)O)ccc2-c2cccs2)c1	i	.	-10	.	.	-4	11	12
CCN(C(=O)c1cccc(Br)c1)c1ccccc1	i	.	2	2	2	12	3	16
COc1ccc(C2=NC(C)(C)Cc3cc(OC)c(OC)cc32)cc1OC	i	-15	-2	-2	0	.	6	3
CCc1ccc(O)c(N=Cc2cccc(C)c2O)c1	i	.	1	-49	2	10	24	.
O=C(NCCc1ccc(C(F)(F)F)cc1)C1CCC(=O)N(CCCN2CCCC2=O)C1 (stereo not given)	i	-8	9	3	3	-19	6	-2
Cc1ccccc1CC1(CO)CCCN(C(=O)c2cccc(Cl)c2)C1 (stereo not given)	i	-12	-2	-2	-6	6	-1	-9
CCOC(=O)C1(CC/C(C)=N\NC(N)=O)CC(C)OC1=O (stereo not given)	i	.	-9	-5	1	-8	1	.

Brought forward from above: 6 compounds, then new ones.
SMILES	Rce1 inhib	Yeast UUG start	PABP polyA inh	MT1-MMP act inh	MT1-MMP act inh RFP	CSC inhib	eIF4H FP inh	HIV Env fusion	others
CCN(C(=O)c1cccc(Br)c1)c1ccccc1	i	.	2	2	2	12	3	16
COc1ccc(C2=NC(C)(C)Cc3cc(OC)c(OC)cc32)cc1OC	i	-15	-2	-2	0	.	6	3
CCc1ccc(O)c(N=Cc2cccc(C)c2O)c1	i	.	1	-49	2	10	24	.
O=C(NCCc1ccc(C(F)(F)F)cc1)C1CCC(=O)N(CCCN2CCCC2=O)C1 (stereo not given)	i	-8	9	3	3	-19	6	-2
Cc1ccccc1CC1(CO)CCCN(C(=O)c2cccc(Cl)c2)C1 (stereo not given)	i	-12	-2	-2	-6	6	-1	-9
CCOC(=O)C1(CC/C(C)=N\NC(N)=O)CC(C)OC1=O (stereo not given)	i	.	-9	-5	1	-8	1	.
c1ccc(OCCCc2nc(-c3ccccn3)no2)cc1	i	-10	-1	1	2	-1	5	.
O=C(c1ccc2c(=O)n(Cc3ccc4c(c3)OCO4)c(=O)[nH]c2c1)N1CCN(c2ccccc2)CC1	i	4	6	4	-1	9	47	1
CCOc1ccc(OCC)c(-c2c(=O)n(OCc3ccc(C(C)(C)C)cc3)c3ccccc3[n+]2[O-])c1	i	.	3	-9	-12	4	9	.
COc1ccc(-c2c3c(=O)n(C)c(=O)n(C)c3cn2-c2cccc(OC)c2)cc1	i	-4	8	0	-3	24	3	.
CC(C)[C@H](NC(=O)N1CC(=O)Nc2ccccc21)C(=O)N[C@@H](C(=O)O)c1ccccc1	i	3	-9	-4	-2	-2	-3	3
COC(=O)c1ccc(NC(=O)CC(=O)Nc2ccc(C(=O)OC)cc2)cc1	i	-17	7	1	3	-5	-2	-11
O=C(CSc1n[nH]c(=O)n1C1CC1)Nc1ccc(F)c(Cl)c1	.	-5	.	-1	3	.	.	-3
O=C(COC(=O)c1cc(S(=O)(=O)N2CCOCC2)ccc1F)Nc1c(Cl)cccc1C(F)(F)F	i	.	.	3	2	-3	.	-2
O=C(CN(CCO)c1ccccc1)Nc1ccc(Cl)c(S(=O)(=O)N2CCOCC2)c1	i	7	-10	7	-4	-6	0	6
Cc1ccc(-c2cc(C(F)(F)F)n3nc(C(=O)Nc4c(C)n(C)n(-c5ccccc5)c4=O)cc3n2)cc1	i	-14	4	4	-10	4	-5	.
Cc1ccc(CNC(=O)C2C3C=CC(C3)C2C(=O)O)cc1 (stereo not given)	i	-15	0	-6	-7	-14	1	14
COc1cccc(C(=O)NCc2cn3ccsc3n2)c1	i	-6	7	0	6	-15	8	.

5 structures already listed, arranged by length of the SMILES, ascending:
SMILES	Rce1 inhib	Yeast UUG start	PABP polyA inh	MT1-MMP act inh	MT1-MMP act inh RFP	CSC inhib	eIF4H FP inh	HIV Env fusion	others
COc1cccc(C(=O)NCc2cn3ccsc3n2)c1	i	-6	7	0	6	-15	8	.
c1ccc(OCCCc2nc(-c3ccccn3)no2)cc1	i	-10	-1	1	2	-1	5	.
Cc1ccc(CNC(=O)C2C3C=CC(C3)C2C(=O)O)cc1 (stereo not given)	i	-15	0	-6	-7	-14	1	14
CC(C)[C@H](NC(=O)N1CC(=O)Nc2ccccc21)C(=O)N[C@@H](C(=O)O)c1ccccc1	i	3	-9	-4	-2	-2	-3	3
O=C(c1ccc2c(=O)n(Cc3ccc4c(c3)OCO4)c(=O)[nH]c2c1)N1CCN(c2ccccc2)CC1	i	4	6	4	-1	9	47	1

Carrying on:
SMILES	Rce1 inhib	Yeast UUG start	PABP polyA inh	MT1-MMP act inh	MT1-MMP act inh RFP	CSC inhib	eIF4H FP inh	HIV Env fusion	others
COc1ccc(-c2nc(CS(=O)CC(=O)N3CCN(C)CC3)c(C)o2)cc1OC (stereo not given)	i	9	3	-1	2	-16	-1	-3
CC(=O)Nc1nnc(COc2ccc(Cl)cc2)s1	i	.	5	-2	-1	-5	0	-18
COc1ccc(/C=N/NC(=S)SC)cc1OC	i	.	-1	-2	0	2	-5	-13
CN1c2ccccc2C(C)(C)C12CC(c1ccc(S(=O)(=O)N3CCCCC3)cc1)=NO2 (stereo not given)	i	.	13	-4	-4	.	-4	22
N#CC1=C(N)OC2=C(CCc3ccccc32)C1c1ccccc1Cl (stereo not given)	i	1	5	1	-10	65	0	.
O=C(Nc1cccc(-c2ccc(N3CCOCC3)nn2)c1)c1ccccc1Cl	i	-3	.	3	2	.	.	-12
O=C(Nc1ccccc1C(=O)N1CCCCC1)NC1CCCCC1	.	-21	0	-1	1	-32	-8	2
COc1cccc(OC)c1C(=O)NC(=S)Nc1ccc2c(c1)OCCO2	i	-29	-2	-2	1	-6	-5	-12
Cc1ccc(NC(=O)CN2C(=O)NC(C)(CCc3ccccc3)C2=O)cc1 (stereo not given)	i	-4	?	8	5	-19	3	0
CCc1ccc([C@H]2C(C(=O)O)=C[C@@H](C(C)(C)C)N2S(=O)(=O)c2ccc(C)cc2)cc1	.	6	.	0	5	.	.	-19
Cc1ccc(S(=O)(=O)NCC(=O)N2CCN(c3ccccc3F)CC2)cc1	i	.	-5	0	-3	-12	16	.
O=C(NCc1ccc(F)cc1)C(c1cccs1)N(C(=O)c1csnn1)C1CC1 (stereo not given)	.	0	0	-1	0	-4	0	-60
CC[C@H](C)[C@H](NC(=O)c1ccccc1)C(=O)NC(CC(=O)O)c1ccc(F)cc1 (stereo not given in full)	i	-2	0	-2	3	-10	-6	22
CCOc1ccc(S(=O)(=O)n2ccc(C)n2)cc1	.	-2	0	0	1	4	-2	0
CC(C)c1ccc(NS(=O)(=O)c2ccc3c(c2)oc(=O)n3C)cc1	i	-34	-6	-2	-2	-8	-6	11
CC(=O)c1c(C)[nH]c(C(=O)CN(C)CC(=O)Nc2ccccc2Cl)c1C	.	-11	.	-5	-10	-20	.	.
CCOC(=O)CNc1nc(C(C)(C)C)nc2c1nnn2Cc1ccccc1Cl	i	.	-2	1	-10	-7	4	16
CCOCCCn1c(SCC(=O)Nc2ccc(NC(C)=O)cc2)nc2ccccc2c1=O	i	39	-2	5	4	-2	1	15
CC1C(=O)Nc2ccccc2N1C(=O)c1ccc(O)cc1 (stereo not given)	i	-6	5	-1	1	-2	-4	14
Cc1ccccc1NC(=O)CNc1ccccc1N1CCCCC1	i	-19	.	-4	-3	24	.	18
Cc1ccc(NC(=O)CS(=O)CC(=O)Nc2ccccc2-c2ccc(C)o2)cc1 (stereo not given)	i	-25	28	-29	21	-7	15	8
COc1cccc(NC(=S)N(CCCN2CCOCC2)Cc2cn(C)c3ccccc23)c1	i	.	-7	-8	1	-10	-2	-44
Cc1ccc(/C=C/c2nc3ccccc3[nH]2)o1	i	.	8	-31	9	3	63	-159	eIF4H FP inh retest=18;PABP polyA inh retest=32
COc1ccc(S(=O)(=O)Nc2cccnc2)c(Cl)c1Cl	i	.	2	-14	-10	-10	2	0
CC1CC(C)CN(S(=O)(=O)N2CCC(C(=O)NCCc3ccccc3)CC2)C1 (stereo not given)	i	-21	6	0	2	4	-9	0
CN(/N=C/c1ccc(Cl)cc1)c1ncc(Cl)cc1C(F)(F)F	i	-10	3	3	0	51	0	-9
C[C@H](CO)N1C[C@H](C)[C@@H](CN(C)Cc2ccccc2)Oc2c(NS(=O)(=O)c3cn(C)cn3)cccc2C1=O	.	-18&-7	.	-3	1	9	.	-20[16.7 µM]
COc1ccc(Cn2cccc(NC(=O)Nc3ccc(C#N)cc3)c2=O)cc1	i	2	-7	3	-12	-4	-5	-52
CCCN1C2CCCC1CC(NC(=O)c1ccccc1)C2 (stereo not given)	i	-12	-2	8	10	0	-3	-36
O=C(N/N=C\C1CC=CCC1)c1ccc(Br)o1 (stereo not given)	i	-15	4	0	5	-2	-1	7
CN(CC(=O)NCCc1ccc(S(N)(=O)=O)cc1)S(=O)(=O)/C=C/c1ccccc1	i	-17	8	4	1	-8	-11	11

These rows are one share of the data. The share of hits here may be higher or lower than overall.
